Assay outcomes from PubChem BioAssay.
RE007 growth inh: less growth of the S. pombe RE007 Vpr strain. S. pombe RE007 Vpr strain, BacTiter-Glo ATP luminescence, 24 h; control for the full effect not named in the record. Potency, µM (highest dose often 92.2 µM), inactives show top-dose activity change, negative = less growth. actives 0.21% (n = 360,000); active = well fitted falling curve with a large enough effect; inconclusive = small, poorly fitted or top-dose-only effect; inactive = no such curve, though single readings can be large or run the other way;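 note: % is set by controls: 0 for no effect and ±100 for the full control effect; nearly all actives have a fitted effect of over 50% in size; the assay follows cell death caused by Vpr and the record does not say whether a fall means rescue or toxicity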
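Fission yeast RE007 carrying one integrated HIV-1 vpr copy, seeded at OD 0.01 in PMG+AL medium with 23 nL pinned compound. Grown 24 h at 30 degrees; viability read by BacTiter-Glo luminescence after 5 min.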
Cruzain inh noDet: inhibitors of Trypanosoma cruzi cruzain without detergent; P25779; actives 2.3% (n = 200,000); purified cruzain, Z-FR-AMC fluorescence, no detergent; Potency, µM, inactives show max response, negative = inhibition, hits mostly inhibitors;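 note: plate controls were enzyme without inhibitor for no effect and buffer without enzyme for full effect; nearly all actives have a fitted effect of over 40% in size; top concentration of the series not given in the record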
Target sequence (P25779 123-467 limits assumed): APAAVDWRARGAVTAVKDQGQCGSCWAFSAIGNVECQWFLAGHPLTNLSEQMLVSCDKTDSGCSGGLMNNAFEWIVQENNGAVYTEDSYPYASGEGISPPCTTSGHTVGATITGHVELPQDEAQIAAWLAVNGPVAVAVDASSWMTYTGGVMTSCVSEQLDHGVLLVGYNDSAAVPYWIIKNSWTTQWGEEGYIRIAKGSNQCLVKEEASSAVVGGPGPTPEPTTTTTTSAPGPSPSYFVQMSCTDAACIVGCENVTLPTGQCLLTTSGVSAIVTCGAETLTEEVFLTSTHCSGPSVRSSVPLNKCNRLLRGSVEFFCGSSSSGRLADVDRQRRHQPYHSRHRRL
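Purified cruzain at 1.5 nM, pre-incubated 15 min with compound at room temperature in 100 mM sodium acetate pH 5.5, 5 mM DTT, 0.00005% Triton X-100. Reaction started with 2 uM Z-FR-AMC; AMC fluorescence increase over 60 s gives rate.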
NS1 inh: influenza NS1 inhibition; S. cerevisiae slowed by influenza A NS1, growth recovery by OD600; Potency, µM (doses to about 46.1 µM), without a hit: at the top dose activity, positive = more growth; actives 0.4% (n = 270,000); active means well fitted rising curve with a large enough effect; inconclusive means small, poorly fitted or top-dose-only effect; inactive means no such curve, though single readings can be large or run the other way; note: nearly all actives have a fitted effect of over 50% in size
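A cell-based growth assay was used: compounds that relieve NS1-induced slow growth of budding yeast raise OD600. Assay medium was yeast nitrogen base with ammonium sulphate and -URA supplement, pH 6.0, with 2% galactose.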
SARS PLP yeast: SARS-CoV PLP inhibition in yeast; S. cerevisiae expressing SARS-CoV PLpro, growth rescue; control for the full effect not named in the record; Potency, µM (top dose mostly 32.9 µM), inactives show at the highest dose activity, positive = growth rescue; actives 0.19% (n = 330,000); AID 485353; active means well fitted rising curve with a large enough effect; inconclusive means small, poorly fitted or top-dose-only effect; inactive means no such curve, though single readings can be large or run the other way; note: 0% is about no effect; nearly all actives have a fitted effect of over 55% in size; growth read by luminescence after 48 h
Cruzain inh Det: blocks cruzain activity in presence of Triton detergent; P25779; purified cruzain, Z-FR-AMC fluorescence, 0.01% Triton; Potency, µM, for inactives: max response, negative = inhibition, hits mostly inhibitors; actives 0.43% (n = 200,000); AID 1478;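 note: plate controls were neutral wells for no effect and buffer without enzyme for full effect; nearly all actives have a fitted effect of over 40% in size; top concentration of the series not given in the record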
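Sodium acetate buffer (100 mM, pH 5.5) containing 5 mM DTT and 0.01% Triton X-100 hosted 1.5 nM cruzain and test compound for 15 min at room temperature. Cleavage of 2 uM Z-FR-AMC was then tracked by fluorescence.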
Lassa entry inh: blocks Lassa virus binding to or entry into cells. Lassa virus pseudotype entry inhibition, cell reporter; control for the full effect not named in the record. Potency, µM (highest dose often 37.9 µM), without a hit: at the top dose activity change, negative = inhibition, most hits filed as inhibitors. actives 1.2% (n = 300,000). AID 540256; active means well fitted inhibition curve with a large enough effect; inconclusive means small, poorly fitted or top-dose-only effect, or effect the other way; inactive means flat fitted curve, though single readings scatter; tested in HEK293 cells; note: % is set by controls: 0 for no effect and ±100 for the full control effect; nearly all actives have a fitted effect of over 50% in size; luciferase read-out
MARV entry inh: inhibitors of Marburg virus binding or cell entry | Marburg virus pseudotyped entry inhibition, cell reporter; control for the full effect not named in the record; about a third of the inactives were read at about 46 µM | Potency, µM (highest dose often 37.8 µM), inactives show at the top dose activity change, negative = inhibition, usual class: inhibitors | actives 1.8% (n = 300,000) | AID 540276; active = well fitted inhibition curve with a large enough effect; inconclusive = small, poorly fitted or top-dose-only effect, or effect the other way; inactive = flat fitted curve, though single readings scatter; tested in HEK293 cells; about a fifth of its hits are not listed in these tables; note: % is set by controls: 0 for no effect and ±100 for the full control effect; luciferase read-out
StopGo reporter: lowers the luciferase signal of an FMDV 2A StopGo reporter. human cells with a luciferase reporter of 2A StopGo recoding; control for the full effect not named in the record. Potency, µM (highest dose often 57.9 µM), for inactives: at the top dose signal change, negative = less light. actives 1.2% (n = 410,000); active = well fitted falling curve with a large enough effect; inconclusive = small, poorly fitted or top-dose-only effect; inactive = no such curve, though single readings can be large or run the other way; tested in HEK293T cells; note: % is set by controls: 0 for no effect and ±100 for the full control effect; nearly all actives have a fitted effect of over 45% in size; luciferase light after 4 h
Starred values were filed as active, the others as inactive; u = inconclusive; x = not tested or not shown; & = joins results of further samples; [ ] = dose if it differs, or a comment. Unless noted, calls come from the whole dose curve; as a rule, active = well fitted curve in the direction sought with a large enough effect; inconclusive = small, poorly fitted or top-dose-only effect, or another doubt; inactive = no such curve, though single readings can be large; an effect the other way counts as inactive or inconclusive. Potency is the fitted concentration of half-maximal effect.

nr	compound	MARV entry inh	Lassa entry inh	StopGo reporter	NS1 inh	RE007 growth inh	Cruzain inh noDet	SARS PLP yeast	Cruzain inh Det
1	Nc1cccc2cccc([N+](=O)[O-])c12	20%	-13%	-11%	x	-30%	x	x	x
2	COc1cc(NC(=S)NCc2ccc(S(N)(=O)=O)cc2)c(OC)cc1Cl	-1%	1%	-17%	10%	22%	10%	u	1.8%
3	NNC(=O)c1[nH]c(-c2ccccc2)cc1-c1ccccc1	x	x	4%	u	-2%	x	3%	x
4	COc1cc(OC)cc(C(=O)Nc2ccc3c(c2)n(C)c(=O)n3C)c1	x	x	29%	9%	3%	x	-5%	x
5	Cc1cc(C(=O)CN2CCN(CC(=O)Nc3cccc(F)c3)CC2)c(C)n1C1CC1	-11%	3%	-15%	x	u	x	3%	x
6	COc1ccc(C)cc1NC(=O)Cn1c(=O)ccc2cc(S(=O)(=O)N3CCCC3)ccc21	x	8%[46.1 µM]	-15%	x	x	-14%	x	-2.7%
7	CSc1ccc(CCNC(=O)c2cnc3c(C)cccn3c2=O)cc1	x	3%[46.1 µM]	13%	x	x	0%	x	5.0%
8	CCS(=O)(=O)n1nc(-c2ccc(Cl)cc2)nc1N	13%	0%	-14%	-5%	7%	14%	10%	-2.0%
9	O=C(Nc1ccc(OC(F)F)cc1)c1cc(S(=O)(=O)N2CCOCC2)ccc1F	u	11%	-18%	-7%	2%	x	-2%	x
10	O=C(Nc1c2c(nn1-c1ccccc1)CS(=O)(=O)C2)c1ccc2c(c1)OCO2	0%	-12%	0%	16%	17%	x	u	x
11	C=CCc1ccccc1OCC(O)CN1CCN(c2ccccc2)CC1 (configuration not stated)	x	10%[46.1 µM]	-13%	x	x	17%	x	4.5%
12	Cn1c(=O)c2cc(S(=O)(=O)Nc3cccc(F)c3)ccc2n(C)c1=O	5%	u	4%	1%	0%	-2%	-5%	3.1%
13	Cn1cnnc1SCC(=O)NC1CCCC1	x	x	25%	5%	-5%	x	3%	x
14	O=C(NCc1ccco1)C1CCN(c2nnc(-n3cccc3)s2)CC1	x	x	-3%	-17%	-5%	0%	23%	-4.6%
15	CC(C)CNC(=O)C(=O)Nc1cc2c3c(c1)CCC(=O)N3CCC2	x	x	-10%	4%	-3%	x	-2%	x
16	CCSc1nnc(NC(=O)COc2ccccc2)s1	8%	-3%	x	-30%	7%	u	-1%	-4.7%
17	CCN(CC)CCNC(=O)CCc1n[nH]c(=O)c2ccccc12	5%	-1%	10%	0%	-7%	1%	10%	3.3%
18	CN(C1CCCCC1)S(=O)(=O)c1ccc(C(=O)O)cc1	0%	1%	31%	-8%	2%	-6%	5%	1.2%
19	Cc1ccnc(N2CCC(C(=O)NNC(=O)c3ccncc3)CC2)n1	8%	4%	-5%	-2%	-10%	x	-1%	x
20	O=C(NC(=S)Nc1ccc(C(=O)N2CCOCC2)cc1)c1ccc([N+](=O)[O-])cc1	u	25%	0%	14%	3%	-5%	-1%	5.5%
21	CCNS(=O)(=O)c1ccc2nc(NC(=O)c3cccnc3)sc2c1	1%	18%	93%[activator]	13%	-1%	6%	2%	-2.6%
22	Cc1ccc(N2CC(C(=O)Nc3ccc(N4CCOCC4)cc3)CC2=O)cc1C (configuration not stated)	15%[46.1 µM]	-2%	17%	19%	-2%	x	3%	x
23	COc1ccc(/C=C2/CC/C(=C\c3ccc(OC)c(OC)c3OC)C2=O)c(OC)c1OC	0%	u	-15%	0%	-22%	u	5%	-6.3%
24	CC/C(O)=C1\C(=O)CC(c2ccccc2)CC1=NCCc1c(C)[nH]c2ccc(C)cc12 (configuration not stated)	4%	-5%	u	-5%	4%	u	-19%	-5.2%
25	O=C(c1cccnc1Nc1ccc2c(c1)CCC2)N1CCOCC1	20%	24%	x	-11%	-4%	1%	-4%	-1.1%
26	COc1ccccc1/C=C/C=N/NC(=O)c1cc(-c2ccc(C)o2)[nH]n1	u	u	-6%	18%	1%	x	1%	x
27	CCOC(=O)/C(C#N)=C/c1c(Oc2cc(C)cc(C)c2)nc2ccccn2c1=O	10%	3%	-11%	5%	6%	u	21%	-6.2%
28	C=C(C)CCC(C)N1CCC(n2nccc2NC(=O)CCOc2ccccc2)CC1 (configuration not stated)	-19%	u	-23%	2%	5%	x	14%	x
29	CCOc1ccc(C2N(c3cc(Cl)ccc3OC)C(=O)C3CCCN32)cc1OC (configuration not stated)	2%	x	-13%	11%	2%	17%	2%	2.0%
30	CCc1ccccc1NC1=NCC(=O)N1Cc1ccc(OC)cc1	7%	-5%	10%	-16%	7%	1%	-6%	-0.1%
31	CC1(C)CSC(=S)N1S(=O)(=O)c1ccccc1	12%	-2%	-13%	-45%	-10%	-2%	-8%	-2.0%
32	COc1cc(/C=C/c2nc3ccccc3c(=O)[nH]2)ccc1OC(F)F	x	x	49%[activator]	-1%	1%	x	1%	x
33	O=C1CCCC2=C1C1c3ccccc3C(=O)N1c1ccc(C(=O)c3ccccc3)cc1N2 (configuration not stated)	u	u	-25%	8%	-11%	17%	27%	-7.2%
34	COCCNC(=S)NNC(=O)c1ccc(-n2cnnn2)cc1	u	-5%	1%	x	-8%	x	4%	x
35	COC(=O)[C@H](CC(C)C)NC(=O)NCc1ccc(Cl)cc1	-5%[46.1 µM]	-1%	-13%	-1%	21%	x	-2%	x
36	COC(=O)CN1C(C)=Nc2ccc(Br)cc2C1c1ccccc1 (configuration not stated)	-1%	-4%	-11%	-10%	7%	-16%	2%	0.3%
37	CCOc1ccc(NC(=O)Cn2nnc(C(=O)NCc3cccs3)c2N)cc1	-6%&-6%[46.1 µM]	14%[46.1 µM]	-16%&-12%	-4%	2%	-29%	-1%	-3.1%
38	Nc1c(C(=O)O)cnc2nc(N3CCOCC3)nn12	-3%[46.1 µM]	1%	8%	3%	-4%	x	3%	x
39	CC(C)(C)c1ccc(C(CC(=O)O)NC(=O)c2ccccc2F)cc1 (configuration not stated)	5%[46.1 µM]	13%[46.1 µM]	-12%	x	9%	x	7%	x
40	COc1cccc(/C=C2\SC(N)=NC2=O)c1OS(=O)(=O)c1ccccc1	-1%[46.1 µM]	10%[46.1 µM]	-5%	x	-9%	x	-5%	x
41	COc1ccc(C=NOCC(=O)OCC(=O)Nc2ccc(OC)cc2)cc1	-6%	2%	-8%	x	-1%	x	12%	x
42	CCC(C(=O)Nc1nnc2n1CCS2)c1ccccc1 (configuration not stated)	x	-9%[46.1 µM]	0%	x	x	3%	x	2.4%
43	Cc1ccc2oc(=O)c3cnn(CC(=O)NC4CCC(C)CC4)c3c2c1 (configuration not stated)	x	x	u	5%	9%	-2%	-4%	-0.6%
44	CC(=O)N1CCN(C(=O)C2CCN(S(=O)(=O)c3ccccc3C(F)(F)F)CC2)CC1	-16%[46.1 µM]	-12%[46.1 µM]	-2%	x	1%	x	2%	x
45	Cc1[nH]c2ccc(Br)cc2c(=O)c1CN1CCCCCC1	x	x	-10%	4%	-10%	x	1%	x
46	CC(C)c1cc(C(=O)OCC(=O)N2CCN(C(=O)c3ccco3)CC2)c(O)c(C(C)C)c1	1%	-6%	-17%	-1%	0%	x	22%	x
47	COCC(=O)Nc1nc2n(n1)C(c1ccc(Cl)cc1)CC(c1ccc(OC)cc1)N2 (configuration not stated)	-8%	-17%	u	8%	-18%	u	-1%	0.4%
48	CC(C)COc1ccc(C(=O)N(CC(=O)Nc2ccccc2C(F)(F)F)Cc2ccco2)cc1	u	u	-28%	x	17%	x	-23%	x
49	COc1ccc(-c2nc3c(c(=O)c4ccccc4n3C)c(=O)n2Cc2ccccc2)cc1	6%	8%	-9%	12%	-8%	-4%	-17%	-2.5%
50	CC(=O)N1CCCc2cc(S(=O)(=O)Nc3ccc(OC(F)(F)F)cc3)ccc21	x	-17%[46.1 µM]	20%	x	x	u	x	-9.9%
51	O=S(=O)(Nc1ccc2[nH]ncc2c1)c1ccccc1Cl	11%[46.1 µM]	9%	58%[activator]	20%	2%	x	2%	x
52	Cc1cc(C)c2cc(C(=O)Nc3ccccc3)[nH]c2c1	27%	u	55%[activator]	-3%	6%	x	-1%	x
53	CC1(c2ccc(OC(F)F)cc2)NC(=O)N(CC(=O)NC2CCCCC2)C1=O (configuration not stated)	u	5%	-21%	3%	u	0%	10%	3.4%
54	O=C(NCC1CCCO1)c1cc(-c2ccc(F)cc2)no1 (configuration not stated)	x	x	71%[activator]	-13%	0%	x	2%	x
55	O=C(Nc1ccc(Nc2ccccc2)cc1)N1CCOCC1	15%	4%	4%	-3%	-11%	-9%	-3%	1.2%
56	CCCCCn1c(=O)[nH]c2cc(C(=O)NC3CCN(Cc4ccccc4)CC3)ccc2c1=O	-1%[46.1 µM]	-6%	u	x	1%	x	x	x
57	COc1ccc(N(CC(=O)N2CCc3ccccc3C2)S(=O)(=O)c2c(C)nn(C)c2C)cc1	x	x	4%	-14%	3%	u	-3%	1.3%
58	CC1(C2CC2)NC(=O)N(CC(=O)N2CCN(c3ccccc3Cl)CC2)C1=O (configuration not stated)	22%	2%	23%	x	5%	x	0%	x
59	COC(=O)C1C2C=CC3(CN(C(C)c4ccc(OC)cc4)C(=O)C13)O2 (configuration not stated)	-1%[46.1 µM]	1%	-17%	0%	-11%	-1%	8%	0.0%
60	O=C1CCS/C(=N\N=C\c2ccc(Cl)cc2Cl)N1	-2%	7%	60%[activator]	0%	7%	x	0%	x
61	O=C(COc1ccccc1Cl)N(Cc1cccs1)C1CCS(=O)(=O)C1 (configuration not stated)	13%[46.1 µM]	0.5µM*	-9%	15%	8%	x	1%	x
62	Nc1c(NCCc2ccccc2)c2ccccc2oc1=O	u	-28%[46.1 µM]	-9%	1%	2%	x	-1%	x
